# AF4-AF9 inh: blocks AF4 peptide binding to human AF9; P42568; AlphaScreen, biotin-AF4 peptide binding to FLAG-AF9; inhibition, % at 10 µM; 350,000 tested, 0.47% active;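 active means every replicate reaching a set inhibition limit, whatever the replicate mean, cut at about 25% in these data; inconclusive means mean inhibition reaches that limit but some replicates miss it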;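 further: 0% = plate neutral control median and 100% = total signal loss; the record names both 10 and 1 µM as test concentration; the first replicate is given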
# Vif TR-FRET: HIV-1 Vif–A3G interaction blockers – biochemical, TR-FRET, GST-Vif 1-94, biotin-A3G peptide, dose response retest, primary screen (AID 1117319); inhibition, %; hits with a dose series show IC50 in µM; 260,000 tested, 0.57% active; TR-FRET GST-Vif / biotin-A3G peptide binding; higher % means a stronger effect; test concentration not given here; strong numbers were not always called active;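 active means above the screen mean plus three standard deviations and confirmed in dose response; inconclusive means results disagree or hit not tested in dose response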;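 further: Vif residues 1-94 fused to GST binding biotinylated APOBEC3G peptide 110-148; 0% = full assay without inhibitor and 100% = GST in place of GST-Vif; retest series ran down from 100 µM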
# UCH37 DUB inh: blocks the human deubiquitinase UCH37 | AID 588478 | purified proteasome/UCH37, Ub-AMC cleavage fluorescence | Q9Y5K5 | inhibition, % (no concentration beside the values) | 330,000 tested, 0.33% active;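 active means mean of two replicates above 20%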;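 further: 0% = compound-free wells with enzyme and 100% = wells lacking proteasome; stock transfer was 100 nL into about 20 µL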
# Target sequence (Q9Y5K5 whole entry, looked up): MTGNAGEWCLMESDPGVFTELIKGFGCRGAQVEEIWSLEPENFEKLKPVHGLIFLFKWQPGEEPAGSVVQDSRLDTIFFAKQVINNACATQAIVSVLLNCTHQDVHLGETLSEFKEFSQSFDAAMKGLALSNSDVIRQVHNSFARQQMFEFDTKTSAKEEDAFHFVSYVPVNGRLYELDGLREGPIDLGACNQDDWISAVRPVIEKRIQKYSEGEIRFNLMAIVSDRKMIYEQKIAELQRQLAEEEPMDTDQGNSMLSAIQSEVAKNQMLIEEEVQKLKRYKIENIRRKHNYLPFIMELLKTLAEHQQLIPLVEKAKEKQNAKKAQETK
#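 assay system = human UCH37 enzyme supplied as purified proteasome complex | amount = proteasome at 0.15 nM in the dispensed enzyme solution | schedule = 30 min compound-proteasome preincubation then 25 min substrate reaction, room temperature | measured by = fluorescence, ex 355 nm, em 460 nm | benchmarks = no-proteasome wells (full inhibition) and compound-free wells (no inhibition)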
# FGF22 binding: shifts melting point of recombinant human FGF22; recombinant FGF22 thermal shift, SYPRO orange fluorescence; percent of sucrose octasulfate shift, DMSO zero; AID 651658; 340,000 tested, 1.5% active; Q9HCT0; calls only at 9.99 µM;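 active means melting point raised past a set limit in the mean and every replicate; inconclusive means no clear call; three in four hits are not shown here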
# Target sequence (Q9HCT0 whole entry, looked up): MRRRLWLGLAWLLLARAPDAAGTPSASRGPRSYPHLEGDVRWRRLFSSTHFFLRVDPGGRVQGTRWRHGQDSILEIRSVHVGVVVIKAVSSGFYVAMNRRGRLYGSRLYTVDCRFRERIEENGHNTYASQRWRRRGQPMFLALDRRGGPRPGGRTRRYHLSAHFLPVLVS
# RanGTP-Impb inh: disruptors of Ran-importin-beta complex formation – biochemical, FRET, CFP-Ran, YFP-importin-beta, homogeneous, primary screen | 300,000 tested, 1.1% active | cell-free CFP-Ran/YFP-importin-beta FRET ratio | inhibition, % (concentration not given with the values);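 active means most replicates above 15%; inconclusive means exactly half above 15%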;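 further: 0% = DMSO wells and 100% = Ran loaded with GDP instead of GTP; wells of about 40 µL received 100 nL stock; the first replicate is given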
# Ecoli growth: inhibitors of Escherichia coli growth | OD600, 23 h; stronger effect = lower value | OD600 absorbance (concentration not given with the values) | 330,000 tested, 0.21% active;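 active means OD600 absorbance below the run mean of sample wells minus 3.6 SD, in any replicate, cut at about 0.56 in these data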;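 further: stock transfer was 300 nL into about 60 µL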
# HNF4A DNA FP: change in binding of human HNF4 alpha to DNA | AID 1224865 | activity change, % at 10 µM | 360,000 tested, 0.3% active | HNF4a-FITC DNA binding, fluorescence polarization, 1 h; in the data active means activity change above about 30%, passing the limit was not always enough;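 further: controls were the assay level and a saturating level of protein; the project sought stronger binding though the title names inhibitors; some compounds called inactive have numbers as strong as hits; positive values seem to mean higher polarization but the record does not say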
# Target sequence (P41235 whole entry, looked up): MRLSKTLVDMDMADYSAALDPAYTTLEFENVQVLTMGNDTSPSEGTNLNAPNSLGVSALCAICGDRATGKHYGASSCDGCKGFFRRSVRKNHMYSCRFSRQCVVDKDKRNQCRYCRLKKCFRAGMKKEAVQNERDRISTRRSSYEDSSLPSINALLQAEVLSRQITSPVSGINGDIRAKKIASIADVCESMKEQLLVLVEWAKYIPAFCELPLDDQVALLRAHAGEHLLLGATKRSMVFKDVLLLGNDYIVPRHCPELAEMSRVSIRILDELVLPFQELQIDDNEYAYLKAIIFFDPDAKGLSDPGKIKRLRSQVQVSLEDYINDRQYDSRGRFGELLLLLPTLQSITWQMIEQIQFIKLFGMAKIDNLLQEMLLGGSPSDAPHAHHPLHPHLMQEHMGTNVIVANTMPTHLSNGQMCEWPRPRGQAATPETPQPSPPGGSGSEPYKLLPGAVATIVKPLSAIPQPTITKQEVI
# * = called active by the depositor; i = inactive; ? = inconclusive; / = no result given; + = active, no number; & = joins results of further samples. The list is partial. The share of hits here may be higher or lower than overall.
SMILES,AF4-AF9 inh,Vif TR-FRET,UCH37 DUB inh,FGF22 binding,RanGTP-Impb inh,Ecoli growth,HNF4A DNA FP
COc1ccc(-n2c(COc3ccc4c(c3)OCO4)nnc2SCC(=O)O)cc1,-2.1,-0.9%,0.7,i,1.1,0.66,-1.5
CCOC(=S)NC(=O)c1sc2ccccc2c1Cl,/,-0.7%,6.0,/,52.8*,0.652,0.2
O=C(CSc1ccc2c(c1)OCCO2)Nc1ccc(Br)cn1,-2.7,/,5.4,i,-2.0,0.677,-3.1
C=CCn1c(SCC(=O)Nc2cccnc2Cl)nnc1-c1ccc(Cl)cc1,/,/,-2.0,/,2.1,0.691,1.3
O=C(O)C[C@H]1c2cc(C(F)(F)F)ccc2S(=O)(=O)N1Cc1ccccc1,1.4,/,0.2,i,0.4,/,-5.5
O=C(/C=C/c1ccco1)Nc1ccc(Oc2ccccc2)cc1,/,>100µM*,1.9,/,-3.8,0.664,0.5
COc1ccc(OC)c(NC(=O)c2cccnc2Sc2cc(C)ccc2C)c1,/,/,0.4,/,0.7,0.697,5.8
COc1ccc(OC)c(-c2csc(NC(=O)Cc3cc(OC)c(OC)c(OC)c3)n2)c1,-0.5,-11.2%,0.2,i,-0.4,0.667,-0.3
CC(=O)Oc1ccc(-c2csc(Nc3cccc(C)n3)n2)cc1,-0.5,/,4.0,i,-1.2,0.661,-0.5
Cc1ccc2nc(-c3ccccc3)cc(C(=O)O)c2c1,/,-3.3%,-2.5,/,-3.4,0.725,5.0
CN(Cc1cccc(F)c1)C(=O)CSc1nnnn1C1CC1,2.2,-3.8%,3.4,i,/,0.618,4.0
COc1ccccc1NC(=O)CCN1C(=O)c2ccccc2C1=O,-1.6,0.2%,-0.2,i,-1.6,0.65,2.8
COc1ccc(N(C(=O)C(C)C)S(=O)(=O)c2ccc3ccccc3c2)cc1,-4.6,/,3.6,i,1.5,0.684,4.3
CCOC(=O)Cc1csc(NC(=O)COc2cccc(C)c2)n1,-1.1,24.0%,3.0,i,0.6,0.647,1.7
NC(N)=NN=C(c1ccc(F)cc1)c1ccc(C(F)(F)F)cc1,18.6,-5.2%,/,i,/,/,1.1
CCOC(=O)c1sc(NC(=O)Nc2cccc(Cl)c2)cc1C,1.5,1.4%,-4.7,i,9.5,0.647,0.5
CCOCCCNC(=O)Cn1cnc2sc(C)c(S(=O)(=O)N3CCN(c4ncccn4)CC3)c2c1=O,-0.4,-7.6%,-1.1,i,1.1,0.66,3.6
Cc1ccc(N(C)C(=O)c2ccc(CNc3c(N4CCC(C)CC4)c(=O)c3=O)cc2)cc1,-0.2,/,3.3,i,3.1,0.656,5.0
Cc1cc(C)cc(NC(=O)CCOc2ccccc2)c1,-0.8,-1.4%,5.7,i,-3.0,0.648,-4.6
O=C(N/N=C\c1ccc([N+](=O)[O-])o1)C1COc2ccccc2O1 (stereo not given),-0.8,32.4%,/,i,-0.3,/,10.0
Cc1ccc(NC(=O)c2ccc(C(C)(C)C)cc2)cc1-n1cnnn1,-0.7,-5.1%,0.2,i,5.2,0.64,-2.0
O=C(OC1CCOC1=O)c1ccc(Cl)c(S(=O)(=O)N2CCOCC2)c1 (stereo not given),-3.4,1.6%,0.7,i,/,0.669,-4.8
Cc1ccc(S(=O)(=O)N2CCC(C(=O)NCCN3CCOCC3)CC2)cc1C,-7.3,-0.1%,0.9,i,3.5,0.694,1.9
COCCCn1c(SCC(=O)NC2CCCC2)nnc1-c1cccs1,-0.1,/,1.3,i,?,0.694,2.8
COc1ccccc1C1(O)C(=O)Nc2ccccc21 (stereo not given),1.1,5.5%,5.3,i,8.5,0.684,-2.2

# Next structures:
SMILES,AF4-AF9 inh,Vif TR-FRET,UCH37 DUB inh,FGF22 binding,RanGTP-Impb inh,Ecoli growth,HNF4A DNA FP
NCC(c1ccco1)c1c[nH]c2ccccc12 (stereo not given),-0.4,/,6.5,i,1.3,0.677,1.8
O=C1CC(N2CCN(c3ccc(O)cc3)CC2)C(=O)N1c1ccc2c(c1)OCO2 (stereo not given),-0.8,-2.9%,-0.9,i,0.2,0.667,-1.0
Cc1c(Cl)cnc(NC(=O)COC(=O)C(NC(=O)c2ccco2)C(C)C)c1Cl (stereo not given),/,22.1%,2.9,/,3.5,0.692,-1.8
CCN(C(=O)CSc1nnnn1C)C1CCCCC1,0.3,-6.4%,0.4,i,/,0.705,-0.6
Cc1cccc(CCNS(=O)(=O)c2cc3c(cc2C)NC(=O)CO3)c1,-3.6,/,7.9,i,-0.8,0.732,-2.2
CCCCSc1nnc(-c2cc3c(C(F)(F)F)nn(C)c3s2)n1C,/,12.6%,2.9,/,2.6,0.734,-1.4
O=C(Nc1nc2c(F)c(F)c(F)cc2s1)c1ccco1,-4.3,/,4.4,i,0.7,0.673,-2.2
CCCCN(C(=O)C1=NN(c2ccccc2)C(=O)CC1)c1c(N)n(CCC)c(=O)[nH]c1=O,-5.6,/,2.7,i,/,0.679,2.7
COc1ccccc1CNC(=O)CCS(=O)(=O)c1ccc2c(c1)CC(C)N2C(=O)C1CC1 (stereo not given),0.9,-0.3%,6.0,i,2.1,0.657,-3.6
COc1cc(OC)cc(C(=O)Nc2ccc(N(C)C)c3ccccc23)c1,0.2,-5.0%,6.5,i,?,0.693,3.2
COCCNC(=O)CCc1c(C)nc2c(c(C)nn2-c2ccc(C)cc2)c1C,-3.2,2.7%,-85.6,i,3.0,0.693,-1.8
O=C(COc1ccc(Cl)cc1Cl)Nc1ccc(-c2ccc(N3CCOCC3)nn2)cc1,0.3,-2.0%,-1.0,i,-3.3,0.677,2.8
COc1ccc(N2CC(NC(=O)NC(C)(C)C)CC2=O)cc1 (stereo not given),5.8,/,2.6,i,-3.7,0.695,3.9
CCCC(C(=O)O)N1C(=O)/C(=C/c2cccn2C)SC1=S (stereo not given),/,/,22.5*,/,/,0.696,114.5
O=C(NCc1ccccc1)c1cccc(NS(=O)(=O)c2cccc3cccnc23)c1,0.5,-2.8%,1.0,i,1.3,0.69,-2.3
O=C(CN1C(=O)C2CCCCC2C1=O)N1CCN(c2ncccn2)CC1 (stereo not given),-3.1,-7.2%,-2.5,i,2.9,0.696,3.6
O=C(CN(Cc1ccccc1)S(=O)(=O)c1ccc(F)cc1)NCCC1=CCCCC1,/,1.5%,6.8,/,-1.7,0.729,4.2
COc1ccc(C(OC(=O)c2ccco2)C(=O)NCC2CCCO2)cc1 (stereo not given),/,1.5%,2.4,/,?,0.656,0.3
CCOc1ccc(NC(=S)N(CCOC)C(C)c2cccnc2)cc1 (stereo not given),3.3,1.3%,2.9,/,0.2,0.688,-1.1
COc1ccccc1NC(=O)c1ccc(NC(=O)c2ccc(=O)[nH]c2)cc1,-4.8,2.2%,4.6,+,/,0.673,3.1
Cc1onc(-c2ccccc2)c1C(=O)Nc1ccc2c(c1)OCCO2,8.3,-0.1%,0.5,i,5.6,0.726,1.4
COC(=O)NCc1ccc(CNC(=O)OC)cc1,/,8.6%,-0.7,/,-1.3,0.709,-0.6
NS(=O)(=O)c1ccc(N/C=C\C(=O)c2cccc3ccccc23)cc1,/,/,2.6,/,6.9,0.748,-0.5
CCc1ccc(C(=O)Nc2ccc3nc(C)ccc3c2)cc1,-4.8,-0.4%,2.2,i,-0.7,0.648,0.4
O=C(Nc1ccc(-c2csnn2)cc1)C(Cl)(Cl)Cl,-1.7,-4.3%,2.0,i,0.2,0.654,-3.3

# One compound at a time, from the list above. Order of values: AF4-AF9 inh, Vif TR-FRET, UCH37 DUB inh, FGF22 binding, RanGTP-Impb inh, Ecoli growth, HNF4A DNA FP
# `CCN(C(=O)CSc1nnnn1C)C1CCCCC1` reads 0.3, -6.4%, 0.4, i, /, 0.705, -0.6
# `COc1ccc(C(OC(=O)c2ccco2)C(=O)NCC2CCCO2)cc1` (stereo not given) reads /, 1.5%, 2.4, /, ?, 0.656, 0.3

# (listing goes on)
SMILES,AF4-AF9 inh,Vif TR-FRET,UCH37 DUB inh,FGF22 binding,RanGTP-Impb inh,Ecoli growth,HNF4A DNA FP
Cc1ccc(NC(=O)C2CCN(C(=O)OC(C)(C)C)CC2)cc1S(=O)(=O)N1CCCCC1,1.6,/,0.6,i,/,0.64,7.0
CSc1ccccc1C(=O)NC1CCCC1,5.5,7.2%,2.4,i,-1.3,0.596,-1.4
Cc1cc(Cl)ccc1OCC(=O)N/N=C/c1ccncc1,1.7,/,/,i,0.6,/,0.1
CCN(CC)S(=O)(=O)c1ccc(Cl)c(NC(=O)COC(=O)c2ccc(O)cc2)c1,-0.9,0.2%,3.4,i,-3.1,0.695,4.8
O=C(c1cc([N+](=O)[O-])ccc1N1CCOCC1)N1CCN(c2ccc([N+](=O)[O-])cc2)CC1,2.2,11.3%,13.9,/,7.2,0.682,-0.9
Cc1ccc(Cn2nnc3c(=O)[nH]c(C4CCN(S(=O)(=O)c5ccc(F)cc5)CC4)nc32)cc1,/,8.8%&-7.3%,-1.6,/,6.7,0.73,-1.9
O=C(Nc1ccc2c(c1)OCO2)c1ccc2sc([C@@H]3O[C@H](CO)[C@H](O)[C@H](O)[C@H]3O)nc2c1,-2.5,/,/,i,/,/,4.1
O=C(CNC(=O)c1ccccc1F)NCCc1ccc(Cl)cc1Cl,-3.6,/,-1.5,i,4.9,0.683,0.3
CCOC(=O)[C@H]1[C@H]2COc3cc(OC)ccc3[C@@H]2N2C(=O)CN(Cc3ccc(Cl)cc3)C(=O)[C@@]12C,4.6,/,-1.0,i,/,/,-2.6
COCCNS(=O)(=O)c1cc(OC)c(Cl)cc1Cl,/,0.3%,-0.2,/,-1.0,0.666,/
O=C(NC1CCCCCC1)C(=O)NC1CC1,-2.5,/,1.5,i,-3.1,0.688,-4.7
CCCC(C)(C)C(=O)N1CCC1(C)C(=O)Nc1cccc2ccccc12 (stereo not given),-3.6,/,/,i,/,/,-0.4
CCCCCNC(=O)Cc1ccc(OC)cc1,/,-0.4%,-2.4,/,-0.6,0.759,4.0
CCc1nnc2n1N=C(c1ccc([N+](=O)[O-])cc1)CS2,-1.4,-9.5%,4.5,i,-0.6,0.702,4.5
O=C(CN1CCOCC1)Nc1cccc(C(F)(F)F)c1,1.4,/,1.7,i,3.2,0.671,-0.4
CC1CCC(C(C)C)C(OC(=O)COC(=O)c2ccc(=O)[nH]c2)C1 (stereo not given),/,-0.8%,0.7,/,2.3,0.68,-3.1
CC(C)n1c(=S)[nH]c2c1c(=O)[nH]c(=O)n2C,/,19.6%,1.8,/,3.3,0.75,-2.2
COc1ccc(C2=NS(=O)(=O)N(C)C(C(=O)NCc3ccc4c(c3)OCO4)=C2)cc1OC,4.8,/,4.3,i,-1.1,0.728,2.7
CC(C)CNS(=O)(=O)c1ccc(C(=O)Nc2ccc3c(c2)OCO3)cc1,1.3,/,-25.8,i,-2.9,0.705,-0.4
CCN1/C(=C2\C(=O)N(C)C(=S)N2c2ccccc2)C=Cc2ccccc21,-75.9,11.1%,7.1,i,5.0,0.648,4.3
CC(C)(C)c1ccc(-c2nc(C#N)c(NCc3cccnc3)o2)cc1,/,3.4%,-12.6,/,0.8,0.612,2.6
Clc1nc(-c2ccccc2)ncc1Oc1ccccc1,-10.4,/,5.2,i,2.0,0.666,-2.2
O=C(Cc1ccc(S(=O)(=O)N2CCOCC2)s1)Nc1ccccc1N1CCCC1,-0.7,-8.9%,-11.6,i,18.8*,0.693,-3.0
COc1ccc(CCNC(=O)CCc2nnc(Cc3ccc4c(c3)OCO4)o2)c(OC)c1,-2.0,2.0%,0.2,i,2.2,0.618,0.7
O=c1ccc(-c2ccc(S(=O)(=O)NCC3CCN(Cc4ccccc4F)CC3)s2)n[nH]1,1.8,-5.3%,-2.4,i,-0.3,0.691,2.1
Cc1ccccc1Cc1c(C)nc2nc(SCC(=O)NCc3ccco3)nn2c1C,/,0.4%,1.9,/,2.6,0.732,2.5

# Bioassay records as filed in PubChem BioAssay.
